# Bioassay records as filed in PubChem BioAssay.
# RecA intein inh = inhibitors of M. tuberculosis RecA intein splicing; actives 0.75% (n = 290,000); inhibition, %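 (about 9 µM by stock and volumes)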; cell-free RecA intein splicing, fluorescence; P9WHJ3; AID 2221; in the data active means inhibition above about 30%; inconclusive means no clear call, values can overlap the other calls;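 further: 0% = vehicle wells and 100% = reference inhibitor control wells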
# Target sequence (P9WHJ3 whole entry, looked up): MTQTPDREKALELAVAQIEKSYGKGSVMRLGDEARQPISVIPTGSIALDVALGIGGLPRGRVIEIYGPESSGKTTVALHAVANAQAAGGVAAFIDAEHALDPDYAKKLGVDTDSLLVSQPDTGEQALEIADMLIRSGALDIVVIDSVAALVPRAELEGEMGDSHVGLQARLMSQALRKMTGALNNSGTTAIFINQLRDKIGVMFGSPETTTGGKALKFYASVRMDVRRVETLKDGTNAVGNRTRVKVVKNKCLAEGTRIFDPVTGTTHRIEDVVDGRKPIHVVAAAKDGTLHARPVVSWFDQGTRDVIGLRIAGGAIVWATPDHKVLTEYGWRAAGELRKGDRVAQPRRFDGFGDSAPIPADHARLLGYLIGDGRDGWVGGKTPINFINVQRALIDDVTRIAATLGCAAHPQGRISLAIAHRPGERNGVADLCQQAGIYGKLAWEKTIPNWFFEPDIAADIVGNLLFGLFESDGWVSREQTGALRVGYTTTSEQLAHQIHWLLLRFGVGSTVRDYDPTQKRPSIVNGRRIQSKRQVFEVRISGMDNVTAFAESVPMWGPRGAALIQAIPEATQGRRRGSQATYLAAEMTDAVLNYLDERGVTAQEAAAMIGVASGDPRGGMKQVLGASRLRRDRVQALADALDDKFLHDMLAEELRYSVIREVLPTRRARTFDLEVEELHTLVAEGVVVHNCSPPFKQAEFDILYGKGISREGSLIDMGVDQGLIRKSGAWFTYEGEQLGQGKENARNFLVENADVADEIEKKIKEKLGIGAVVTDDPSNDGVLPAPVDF
# Arbovirus anti = antivirals against arbovirus infection; actives 0.37% (n = 200,000); inhibition, % at 10 µM; arbovirus infection cell-based antiviral screen; AID 1251;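 active means inhibition from about 30%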;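 further: bluetongue infection of BSR cells; cell survival read as ATP light after 72 h; 0% = infected wells without compound and 100% = uninfected wells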
# Mtb betalactam = beta-lactam sensitization of Mtb H37Rv; actives 0.27% (n = 330,000); M. tuberculosis H37Rv growth with meropenem, percent inhibition; hits of this screen are not shown here; AID 434955; inhibition, % at 25 µM;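 active means about 74% or more and at least 40 points above the plate without the antibiotic, then above 30% in a dose series; inconclusive means first-round hits that could not be retested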;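 further: growth measured after seven days incubation then overnight dye step; 0% = bacteria only wells and 100% = bacteria with antibiotic; twin plates without the antibiotic show which effects depend on it; some results filed as inactive read as strong as hits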
# YopH inh = YopH (Yersinia) phosphatase inhibition; fluorescence Ex485/Em525; inhibition, %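 (about 10 µM by stock and volumes)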; actives 0.16% (n = 140,000);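 active means inhibition of 50% or more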;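 further: controls were vehicle for no effect and minimum signal wells for full effect; inactives centre near -20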
# Mtb growth = M. tuberculosis H37Rv growth inhibitors, H37Rv strain (AID 1626); M. tuberculosis H37Rv growth inhibition; higher % means a stronger effect; inhibition, % at 10 µM; hits with a dose series show IC50 in µM; actives 0.95% (n = 220,000);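 active means confirmed in a dose series; inconclusive means inhibition above 80% but not taken into the dose series; inactive means below 80% or under 30% at every dose of the series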;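 further: bacteria incubated seven days before Alamar blue readout; 0% = bacteria only wells and 100% = bacteria with antibiotic wells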
# Arbovirus anti repeat = recorded beside Arbovirus anti, whose call it bears; inhibition, %; measured here: 10K subset replicate screen; many hits read low in the repeat;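 first of two repeat runs on a subset; 0% = infected and 100% = uninfected wells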
# * marks the source's active call; other numbers are inactive results; ? = inconclusive; . = not tested or not shown.
SMILES,RecA intein inh,Arbovirus anti,Mtb betalactam,YopH inh,Mtb growth,others
Cc1cccc(NC(=O)CSc2nc3ccc(NC(=O)CSc4nnnn4-c4ccccc4)cc3s2)c1C,.,-28,-16,12,.,
CCc1nnc(NC(=O)c2cc(-c3ccccn3)nc3ccccc23)s1,-0.7,9,3,.,2%,
COc1ccccc1Nc1nc2ccccc2[nH]1,5.2,11,-1,6,2%,
Cc1cc(C)c(C#N)c(SC2CCCCC2=O)n1 (stereo not given),0.7,9,1,-24,2%,
COc1ccc(C(C2C(=O)CC(C)(C)CC2=O)C2C(=O)CC(C)(C)CC2=O)cc1,-1.5,.,65,.,3%,
O=C(Cn1c(=O)c2sccc2n(Cc2cccc([N+](=O)[O-])c2)c1=O)NCCc1ccccc1,1.6,-5,3,-26,0%,
Cc1ccc(CN(Cc2ccccc2)C(=S)NCC(=O)N2CCC3(CC2)OCCO3)o1,11,5,13,.,5%,
CCN(CC)c1ccc(NC(=O)Nc2ccccc2)cc1,-4.2,.,-5,.,.,
CCCCc1nc2cc(Cl)ccc2o1,-1.0,9,-8,.,5%,
CC1=Nc2ccccc2/C1=C/c1nc(-c2ccc(C)s2)oc1O,1.3,-1,94,.,?,
COc1cccc2cc(C(=O)Oc3ccc(NC(C)=O)cc3)c(=O)oc12,1.7,-8,5,-29,-5%,
Cc1ccc(C(=O)NCc2ccc3c(c2)OCO3)c(C)c1,2.5,.,6,.,.,
Cc1cc(C)c2cc(CN(CCCN(C)C)C(=S)NCc3ccccc3)c(=O)[nH]c2c1,3.6,-25,11,.,4%,
CC(=O)N1CCN(C(=O)CNC(=O)c2ccc(Br)o2)CC1,-1.0,.,-1,.,.,
O=S(=O)(CCc1nc2ccccc2s1)c1ccc2ccccc2c1,-2.9,5,-10,-7,-2%,
COc1ccc(C(=O)NCc2nnc(SCC(=O)Nc3nc4ccccc4s3)o2)cc1,0.1,-1,6,-3,-3%,
CCOC(=O)CN1C(=O)C(O)(CC(=O)c2ccco2)c2ccccc21 (stereo not given),-0.6,-8,-10,-33,-7%,
CCN(CC)C(=O)COc1ccc2c(-c3ccc(OC)cc3)cc(=O)oc2c1,1.1,.,-2,.,.,
Cc1cc(Cl)ccc1NC(=S)Nc1ccccn1,-1.4,1,.,-23,-2%,
COc1ccc(C(=O)NC(Cc2ccc(OC(=O)c3ccc(OC)cc3)cc2)C(=O)O)cc1 (stereo not given),5.5,17,1,.,-6%,

# 4 structures already listed, sorted by length of the SMILES, falling:
SMILES,RecA intein inh,Arbovirus anti,Mtb betalactam,YopH inh,Mtb growth,others
Cc1cc(C)c2cc(CN(CCCN(C)C)C(=S)NCc3ccccc3)c(=O)[nH]c2c1,3.6,-25,11,.,4%,
CCN(CC)C(=O)COc1ccc2c(-c3ccc(OC)cc3)cc(=O)oc2c1,1.1,.,-2,.,.,
CCOC(=O)CN1C(=O)C(O)(CC(=O)c2ccco2)c2ccccc21 (stereo not given),-0.6,-8,-10,-33,-7%,
Cc1cc(Cl)ccc1NC(=S)Nc1ccccn1,-1.4,1,.,-23,-2%,

# Additional compounds follow:
SMILES,RecA intein inh,Arbovirus anti,Mtb betalactam,YopH inh,Mtb growth,others
CC1(C)Cc2nc(N3CCOCC3)c(C#N)cc2CO1,-3.1,7,1,0,-2%,
Cc1ccc(C(=O)N2CCCC(C(=O)Nc3cccc(-c4ccc(F)cc4)c3)C2)cn1 (stereo not given),4.7,.,2,.,.,
CCOC(=O)N1CCN(c2c(NCCc3ccc(OCC)c(OCC)c3)c(=O)c2=O)CC1,-1.9,5,-11,-23,-9%,
CC(/C=C1\SC(=Nc2cccnc2)NC1=O)=C\c1ccccc1,5.5,.,2,.,0%,
COc1ccccc1S(=O)(=O)Cc1ccc(C(=O)N2CCN(c3ccc(C)cc3)C(C)C2)o1 (stereo not given),1.8,-4,4,-29,2%,Arbovirus anti repeat=-11
COc1cc(/C=C/C(=O)O)cc(S(=O)(=O)N(CC(C)C)CC(C)C)c1OC,3.4,18,1,.,-1%,
CC1(C)CC(=O)c2sc(NC(=O)c3ccco3)nc2C1,-1.9,3,-6,-24,-1%,Arbovirus anti repeat=-1
O=C(Nc1ccc2c(c1)C(=O)N(CC1CCCO1)C2=O)c1cccc(Br)c1 (stereo not given),-1.0,-3,-5,5,-7%,
Cc1ccc(S(=O)(=O)N2CCCN(S(=O)(=O)c3ccc4c(c3)OCCO4)CC2)cc1,-0.5,5,-4,-25,8%,
COC(=O)c1[nH]c2ccccc2c1NC(=O)CCN1CCSCC1,1.3,7,-14,-36,-7%,
COc1ccc(Nc2ncnc3c2cnn3Cc2ccccc2)cc1OC,0.4,0,3,-38,-1%,
O=C(Nc1cc(-c2nn(CC(=O)N3CCCCC3)c(=O)c3ccccc23)ccc1N1CCOCC1)c1ccc(Cl)cc1,1.9,7,3,4,3%,
Cc1nnc(Nc2ccc(C(=O)N3CCOCC3)cc2)c2ccccc12,-0.6,4,-2,-93,-3%,
COc1cc(OC)cc(C(=O)N[C@H](C(=O)OCC(=O)Nc2ccc(F)c(F)c2)C(C)C)c1,-2.1,1,14,-19,-1%,
O=C(c1sc2cc([N+](=O)[O-])ccc2c1Cl)N1CCOCC1,-1.3,0,-5,-21,0%,
CCn1c(C)nnc1SCC(=O)Nc1cccc(Cl)c1,1.6,.,5,.,.,
COC(=O)COc1ccc(S(=O)(=O)Nc2ccc(C(N)=O)cc2)cc1Cl,-0.9,5,-5,-8,-4%,
CCCN1C(=O)S/C(=C\c2ccc(N3CCOCC3)o2)C1=O,-31,-9,87,.,-1%,
COCCn1c(=S)[nH]c2cc(C(=O)N3CCN(c4ccccc4OC)CC3)ccc2c1=O,.,9,-2,-33,5%,
CCC(=O)Oc1ccc(NC(=O)CSCc2ccccc2)cc1,3.4,-17,13,.,9%,
O=C(CN1CCN(C(=O)c2ccco2)CC1)Nc1ccccc1-c1ccccc1,-0.8,0,-8,-19,-8%,Arbovirus anti repeat=-1
N=C1/C(=C/c2cccs2)C(=O)N=C2SN=C(SCc3ccccc3)N12,2.8,35*,-2,-24,-5%,
CC(C)[C@H](N)C(=O)NC[C@H](CC(=O)NC[C@H]1CC[C@H](C(=O)O)CC1)c1ccc(Cl)cc1,-4.0,.,-3,.,.,
COc1ccc(OC)c(-n2c(O)c(C=NCCN3CCNCC3)c(=O)[nH]c2=S)c1,-2.0,.,-10,.,.,
COc1ccc(-c2ccn(-c3cccc(F)n3)n2)cc1,.,-17,.,.,9%,
CCN1C(=O)[C@H]2[C@@H](c3ccc(-c4ccc(Cl)c(Cl)c4)cc3)N[C@@](Cc3ccccc3)(C(=O)OC)[C@H]2C1=O,18,.,10,.,.,
CCSc1nc2c(c(=O)[nH]c(=O)n2C)n1Cc1ccc(Cl)cc1,.,7,-4,-17,3%,
O=C(CCN1CCN(CCO)CC1)Nc1ccc(C2CCCC2)cc1,-1.7,-13,3,.,2%,
COc1ccc(N2CCN(CCCNC(=O)C(=O)c3c(C)[nH]c4ccccc34)CC2)cc1,-4.0,.,-3,.,.,
COCCNC(=O)c1ccccc1N(Cc1ccccc1)S(=O)(=O)c1ccc(C)cc1,2.3,6,4,.,-5%,
Cc1sc(-n2c(C)cc(C=C3C(=O)NC(=O)NC3=O)c2C)c(C#N)c1C,-6.0,0,4,-20,-1%,
COC(=O)C(CCSC)NS(=O)(=O)c1ccc(Cl)cc1 (stereo not given),6.2,10,56,.,2%,
CCOCc1nnc(NC(=O)c2cccs2)s1,5.1,4,0,-41,1%,
Cc1ccc2cc(COC(=O)c3ccco3)c(=O)[nH]c2c1,-3.0,-1,-3,-5,-3%,
CC(C)NC(=O)COC(=O)/C=C/c1ccco1,0.0,3,1,-34,5%,
CCOC(=O)C1(Cc2ccccc2)CCN(Cc2ccc3c(c2)OCCO3)CC1,4.4,4,-6,.,20%,
CCOC(=O)C(=O)Nc1cc(C(=O)OC)cc(C(=O)OC)c1,0.2,4,-4,.,-1%,
CCOC(=O)C1CCCN(C(=O)CNS(=O)(=O)c2ccc(Br)s2)C1 (stereo not given),-1.1,4,-15,10,-4%,
COc1ccc(-c2nc(CS(=O)(=O)CC(=O)Nc3cccc(C(C)=O)c3)c(C)o2)cc1,0.7,.,1,.,.,
Cn1c(N)c(C(=O)COC(=O)c2ccco2)c(=O)n(C)c1=O,-1.1,3,-7,-39,-9%,
CCn1c2ccccc2c2cc(NC(=O)COC(=O)C3CCC(=O)N3)ccc21 (stereo not given),2.8,-9,67,-32,3%,
O=c1cc(N2CCN(c3cccc(Cl)c3)CC2)[nH]c(=O)n1C1CCCCC1,-2.9,-8,8,-49,-8%,
Cc1cc2nc(-c3ccco3)cc(C(F)(F)F)n2n1,0.9,-1,0,-24,2%,Arbovirus anti repeat=-1
CCCCCc1ccc(OCCOCCn2c[n+](C)c3ccccc32)c(CCCCC)c1,26,-31,.,.,61%,
COc1cc(/C=C2/SC(=Nc3ccc(O)cc3)NC2=O)cc(OC)c1O,-0.7,-8,-7,.,-6%,
COc1ccc(C(=O)NCCc2nnc3ccc(SCC(=O)Nc4ccccc4)nn23)cc1,3.4,.,3,.,.,
Cc1cc2c(c(=O)n1CCN(C)C)C(c1ccccc1Br)C(C#N)=C(N)O2 (stereo not given),0.3,2,-5,-56,-10%,
O=C(c1cc(-c2ccccn2)nc2ccc(Br)cc12)N1CCc2ccccc2C1,0.1,-2,.,-47,.,
CSc1ccc(CNc2ncc(-c3cccc([N+](=O)[O-])c3)n2C)cc1,2.9,.,98,.,.,
Cc1nc(/N=C(\N)N(C)C)[nH]c(=O)c1C,-0.9,.,3,.,-13%,
# Going on with the list.
SMILES,RecA intein inh,Arbovirus anti,Mtb betalactam,YopH inh,Mtb growth,others
COc1ccc(NC2=NCC(=O)N2c2ccccc2F)cc1,0.5,8,-2,12,-10%,
CC(C)OC(=O)/C(=C\c1ccc2c(c1)c1ccccc1n2C)NC(=O)c1ccccc1,-2.9,-15,-11,-33,8%,
COc1cccc(/C=C2\SC(=O)N(CCC(=O)NNC(=O)c3ccccc3Cl)C2=O)c1,-0.1,-1,-2,14,2%,
CCOC(=O)Cc1nnc(NC(=O)COc2ccc(C)cc2)s1,-2.6,10,22,-45,-6%,
COc1ccccc1-c1nc2c(c(SCC(=O)N3CCCCC3)n1)Cc1c(CO)cnc(C)c1O2,5.1,.,8,.,.,
C[C@@H](C(=O)Nc1ccc2ccccc2c1)[C@@H]1C[C@@]1(C)[C@@H](N)c1ccccc1,-2.7,.,-15,.,-5%,
CCc1ccc(NC(=O)C(CC)Sc2nc3cc4c(cc3c(=O)n2Cc2ccco2)OCO4)cc1 (stereo not given),0.7,-26,70,-27,-3%,
CC(C)OC(=O)CC1C(=O)NCCN1C(=S)NC(=O)CCc1ccccc1 (stereo not given),-0.8,3,-7,.,-13%,
CC(=O)Nc1ccc(/C(C)=N/NC(=O)c2ccc(CN3CCOCC3)cc2)cc1,-1.2,3,-5,.,-5%,
O=C(CSc1nc2ccccc2c(=O)[nH]1)Nc1ccc(N2CCOCC2)cc1,0.2,.,5,.,.,
Cc1ccc(NC(=S)NCC2CCCO2)c(OC(F)F)c1 (stereo not given),-5.8,-2,3,-13,.,
O=C(O)c1ccc(Nc2ncnc3c2cnn3Cc2ccccc2)cc1,-1.8,-1,7,.,17%,
Oc1cccc(C=NCc2ccccc2)c1O,-1.5,4,2,-16,-2%,Arbovirus anti repeat=2
CCC(=O)Nc1ccccc1Oc1ccccc1,0.8,-2,13,-21,-2%,
Cc1oc2ccc(OCc3ccc(F)cc3)cc2c1C(=O)O,-0.3,16,10,-30,-1%,
C[C@H](NC(N)=O)C(=O)N1CCN(S(=O)(=O)c2ccc3ccccc3c2)CC1,-0.4,.,-8,.,.,
Cc1ccccc1NC(=O)CCN1CCN(Cc2ccccc2)CC1,3.1,6,3,-27,-2%,Arbovirus anti repeat=3

# Structural class, the compounds so far containing bromine (five)
SMILES,RecA intein inh,Arbovirus anti,Mtb betalactam,YopH inh,Mtb growth,others
CC(=O)N1CCN(C(=O)CNC(=O)c2ccc(Br)o2)CC1,-1.0,.,-1,.,.,
O=C(Nc1ccc2c(c1)C(=O)N(CC1CCCO1)C2=O)c1cccc(Br)c1 (stereo not given),-1.0,-3,-5,5,-7%,
CCOC(=O)C1CCCN(C(=O)CNS(=O)(=O)c2ccc(Br)s2)C1 (stereo not given),-1.1,4,-15,10,-4%,
Cc1cc2c(c(=O)n1CCN(C)C)C(c1ccccc1Br)C(C#N)=C(N)O2 (stereo not given),0.3,2,-5,-56,-10%,
O=C(c1cc(-c2ccccn2)nc2ccc(Br)cc12)N1CCc2ccccc2C1,0.1,-2,.,-47,.,

# Only part of the results is shown; count on the stated rates, not on these rows.
